Screens from PubChem BioAssay.
Six1-Eya2 inh = inhibitors of human Six1/Eya2 interaction. Q15475+O00167. AlphaScreen GST-Six1/His-Eya2 binding, biochemical; hits give low values; control for the full effect not named in the record. activity change, % (test concentration not listed). hit rate 0.56% among 360,000. AID 651725; in the data active = activity change below about -65%; inconclusive = about -30% to -65%; inactive = above about -30%; also: % is scaled to controls: 0 for no effect and ±100 for the full control effect; compound concentration not given in the record
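Homogeneous AlphaScreen proximity assay pairing GST-Six1 with His-tagged Eya2 (added as 5X mix: 250 nM and 500 nM) in 50 mM Tris pH 8.0, 300 mM NaCl, 1 mM TCEP. Glutathione donor and nickel acceptor beads; 1 h, 37 °C, dark.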
D2 agonist = activates the human D2 dopamine receptor; P14416; DiscoveRx PathHunter D2 beta-arrestin, luminescence, 90 min; 100% = 57 uM dopamine signal; activation, % (concentration not given with the values); hit rate 0.084% among 360,000; AID 624465; in the data active = activation above about 40%; inconclusive = about 15% to 40%; inactive = below about 15%; also: compound concentration not given in the record; the text of the record calls up to 30% inactive
Target sequence (P14416 whole entry, looked up): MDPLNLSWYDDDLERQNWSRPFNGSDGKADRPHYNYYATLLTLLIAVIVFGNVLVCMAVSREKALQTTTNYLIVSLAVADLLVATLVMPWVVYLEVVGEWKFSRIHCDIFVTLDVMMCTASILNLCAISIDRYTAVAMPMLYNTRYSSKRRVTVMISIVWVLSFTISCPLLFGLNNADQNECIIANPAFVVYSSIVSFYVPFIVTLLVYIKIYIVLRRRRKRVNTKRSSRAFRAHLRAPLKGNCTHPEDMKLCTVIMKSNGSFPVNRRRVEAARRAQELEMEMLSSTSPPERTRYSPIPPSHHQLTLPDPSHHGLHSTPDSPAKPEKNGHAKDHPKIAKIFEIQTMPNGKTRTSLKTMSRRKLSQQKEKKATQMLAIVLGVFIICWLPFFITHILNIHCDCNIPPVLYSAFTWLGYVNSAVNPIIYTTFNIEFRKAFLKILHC
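DiscoveRx PathHunter D2 beta-arrestin cells (2,100/well) attached overnight, then compound-stimulated 90 min at 37 C in HBSS/10 mM HEPES/0.1% Tween-20 buffer; beta-galactosidase complementation read by luminescence after 1 h at ambient temperature. Dopamine 57 uM final (EC100) as control.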
TRPML1 inh = human mucolipin-1 channel inhibition; Q9GZU1; TRPML1-inducible cells, Ca2+ dye fluorescence, FDSS; hits give low values; inhibition of EC80 agonist-evoked calcium signal; activity change, negative = inhibition, % (test concentration not listed); hit rate 0.02% among 390,000; AID 624415; in the data active means activity change below about -50%; inconclusive means about -30% to -50%; inactive means above about -30%;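 also: stimulus is agonist 54-4 at its EC80 concentration; % is scaled to controls: 0 for no effect and ±100 for the full control effect; compound concentration not given in the record; the text of the record puts the active cut at -80%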
Target sequence (Q9GZU1 whole entry, looked up): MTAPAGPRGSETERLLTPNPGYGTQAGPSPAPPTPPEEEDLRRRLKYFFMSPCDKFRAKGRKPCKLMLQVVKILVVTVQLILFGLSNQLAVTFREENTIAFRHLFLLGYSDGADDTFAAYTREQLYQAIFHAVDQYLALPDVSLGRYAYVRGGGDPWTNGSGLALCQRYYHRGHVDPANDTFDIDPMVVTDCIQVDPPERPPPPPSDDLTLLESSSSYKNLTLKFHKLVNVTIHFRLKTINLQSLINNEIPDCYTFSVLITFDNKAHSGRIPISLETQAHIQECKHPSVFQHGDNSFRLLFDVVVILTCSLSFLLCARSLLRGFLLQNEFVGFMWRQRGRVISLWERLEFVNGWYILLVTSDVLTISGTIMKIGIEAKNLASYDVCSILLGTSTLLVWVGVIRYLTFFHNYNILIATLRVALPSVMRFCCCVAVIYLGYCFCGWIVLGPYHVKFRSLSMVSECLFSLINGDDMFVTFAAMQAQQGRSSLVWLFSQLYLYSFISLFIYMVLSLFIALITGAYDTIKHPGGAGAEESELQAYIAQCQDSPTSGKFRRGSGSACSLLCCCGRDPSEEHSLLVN
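TRPML1-DL cells, Tet-induced overnight (~16 h, 37 °C) at 1,500 cells/well, were loaded with Ca8 no-wash dye plus quencher for 45-90 min at room temperature. Compounds were pinned during FDSS kinetic reading; agonist 54-4 at EC80 (4 uM final) then added.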
TRPML1 agonist = human mucolipin-1 channel agonism; TRPML1-expressing cells, Ca2+ dye fluorescence, FDSS; host cell line not named in the record; reference of the full effect not given here; activation, % (concentration not given with the values); hit rate 0.12% among 410,000; AID 624414; in the data active = activation above about 50%; inconclusive = about 30% to 50%; inactive = below about 30%; also: 0% is about no effect; the text of the record puts the active cut at 80%
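In this qHTS format, compounds were pin-transferred onto Ca8-dye-loaded TRPML1-DL cells induced with Tet overnight, and intracellular Ca2+ fluorescence was recorded kinetically for 110 s after a 10 s baseline. A subsequent 4uM final 54-4 (EC80) addition followed by a second 110 s read served as the antagonist phase.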
D2 potentiator = positive allosteric modulators of human D2 dopamine receptor; potentiation, % (test concentration not listed); P14416; hit rate 0.23% among 360,000; DiscoveRx D2 beta-arrestin cells, luminescence, 90 min; 100% = 57 uM dopamine signal; active = potentiation of 50% or more; inconclusive = 30% to 50%; inactive = 30% or less;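 also: compound concentration not given in the record; tested on top of an EC20 dose of dopamine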
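D2 cells co-treated with compound plus 50 nM dopamine (EC20) for 90 min at 37 deg C to detect potentiation. Beta-arrestin recruitment was read as enzyme-fragment luminescence after 1 h at ambient temperature. Full response was set by 57 uM dopamine.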
PINK1 expr mod = changes PINK1 expression | PINK1 immunofluorescence, high-content cytometry, 24 h | Potency, µM (titrated, usually from 76.6 µM), inactives show at the highest dose activation (PINK1 increase), usual class: activators | hit rate 0.2% among 410,000; active = well fitted activation curve with a large enough effect; inconclusive = small, poorly fitted or top-dose-only effect; inactive = flat fitted curve, though single readings scatter; cell line not stated here;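 also: potency is read from the fitted curve at half-maximal effect; % of control where 0% means no effect; nearly all actives have a fitted effect of over 65% in size; a mitochondrial uncoupler was the plate control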
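Stable cell line, 250 cells/well, 12 h attachment; compounds pinned at 5 concentrations, 24 h; CCCP control. Fixed with nuclear dye, primary antibodies 12 h at 10 degrees C, secondary plus cell stain; laser-scanning cytometer read.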
Starred values were filed as active, the others as inactive; ? = inconclusive; / = no result given; [ ] = another dose, or the depositor's remark.

SMILES	Six1-Eya2 inh	D2 agonist	TRPML1 inh	TRPML1 agonist	D2 potentiator	PINK1 expr mod
CN(C(=O)COC(=O)c1ccc(CN2CCCC2=O)cc1)c1ccccc1	-1	-5.8	3	-0.8	-3	1.8%
O=C(N/N=C/c1cccc(Oc2ccccc2)c1)c1cc[n+]([O-])cc1	5	-0.5	44	0.0	-3	-0.8%
CC(=O)Nc1ccc(NC(=O)CN(c2cccc(C(C)=O)c2)S(C)(=O)=O)cc1	-9	-9.7	10	-0.4	-11	0.7%
Cc1cc(C)nc(N2C(=O)CC(Cc3ccccc3)C2=O)n1 (configuration not stated)	5	-1.4	-3	0.8	1	0.3%[38.3 µM]
CC(=O)N1CCN(c2ccc(NC(=O)c3cccc(C)c3)cc2)CC1	7	3.6	3	-0.3	-6	0.5%
CCc1nnc(-n2nc(C)cc2-c2ccccc2)n1N	7	1.2	-6	0.5	-4	-2.7%
CSCCC(NC(=O)c1cccc([N+](=O)[O-])c1)C(=O)OCC(=O)N1CCCC1=O (configuration not stated)	7	-1.4	-7	-0.3	-11	-0.6%
COc1cc(NC(=S)NC2CC(C)(C)NC(C)(C)C2)c(OC)cc1Cl	1	-3.7	0	0.3	-4	1.2%
C=C(C)CN=CC1(C)CCC(C)=CO1 (configuration not stated)	-3	-2.1	-5	0.2	-6	4.1%
OC(c1ccc(F)c(F)c1)c1nc(-c2cccs2)cs1 (configuration not stated)	8	0.5	/	-0.7	1	5.6%
CC1(C)CC(=O)C(C(C2=C(O)CC(C)(C)CC2=O)c2cccs2)C(=O)C1 (configuration not stated)	7	-1.6	23	-0.2	3	4.5%
O=C(COC(=O)/C=C/c1ccccc1Cl)NC1CCCCCC1	6	-4.3	16	4.4	1	3.0%
CCCCNC(=O)/C(C#N)=C/c1cccnc1	1	-3.1	-3	-0.7	-10	0.5%
CSc1nccc(-c2c(-c3ccc(Cl)cc3)noc2C)n1	8	-3.0	10	2.2	-9	2.3%
CC1(C(=O)NS(C)(=O)=O)CCN1C(=O)Cc1ccc(-c2ccccc2)cc1 (configuration not stated)	7	2.5	/	-1.0	4	1.9%
Cc1cn2c(=O)cc(COc3ccccc3NC(=O)c3ccc(C(C)(C)C)cc3)nc2s1	/	/	-16	-0.6	/	-0.5%
Cc1c(NC(=O)C(Sc2ccccc2)c2ccccc2)cccc1[N+](=O)[O-] (configuration not stated)	-5	-7.5	58	3.7	-13	10%
Cn1nc(C(=O)NC2CCCCC2)c2ccccc2c1=O	1	1.6	-13	-1.2	-9	3.1%
COc1ccc(-c2nnn(CC(=O)N(CC(=O)NCCC(C)C)Cc3cccs3)n2)cc1OC	-1	-1.9	30	0.1	-2	-1.6%[38.3 µM]
CN(CC(=O)N1CCc2[nH]c3ccc(F)cc3c2C1)CC1OCCO1	-3	-4.1	-11	1.7	-16	-0.1%
COC(=O)[C@]1(CC(C)C)N[C@H](c2ccc(SC3CCCCC3)cc2)[C@@H]2C(=O)N(C)C(=O)[C@@H]21	-5	-4.6	-16	1.7	2	4.5%
Cc1cc(=O)[nH]c(NCc2ccccc2)n1	7	-3.0	/	/	-4	-0.2%
Nc1nc2c(ncn2[C@@H]2O[C@H](CNCC3=Cc4cc(O)ccc4OC3)[C@@H](O)[C@H]2O)c(=O)[nH]1	-5	-1.5	-2	-0.1	-8	-0.4%
COC(=O)CC(c1ccc(C#N)cc1)n1c(C)ccc1C (configuration not stated)	-11	9.6	29	0.1	-5	2.0%
CC(C)CCNC(=O)CN(CC1CCCO1)C(=O)CCC(=O)Nc1nccs1 (configuration not stated)	19	0.9	5	-0.4	-4	-4.6%

A different layout for some results above.
SMILES | Six1-Eya2 inh | D2 agonist | TRPML1 inh | TRPML1 agonist | D2 potentiator | PINK1 expr mod
COC(=O)[C@]1(CC(C)C)N[C@H](c2ccc(SC3CCCCC3)cc2)[C@@H]2C(=O)N(C)C(=O)[C@@H]21 | -5 | -4.6 | -16 | 1.7 | 2 | 4.5%
CC1(C(=O)NS(C)(=O)=O)CCN1C(=O)Cc1ccc(-c2ccccc2)cc1 (configuration not stated) | 7 | 2.5 | / | -1.0 | 4 | 1.9%
Cc1cn2c(=O)cc(COc3ccccc3NC(=O)c3ccc(C(C)(C)C)cc3)nc2s1 | / | / | -16 | -0.6 | / | -0.5%

(list continues)
SMILES	Six1-Eya2 inh	D2 agonist	TRPML1 inh	TRPML1 agonist	D2 potentiator	PINK1 expr mod
COc1ccccc1NC(=O)CC(C)n1nc(C)cc1C (configuration not stated)	/	/	3	0.1	/	0.8%
O=C(Nc1ccccc1)c1cc(C2CCCCN2S(=O)(=O)Cc2cccc(C(F)(F)F)c2)on1 (configuration not stated)	4	-3.8	/	1.0	-2	2.8%
O=C(CNC(=O)c1ccc(Cl)cc1)Nc1ccc(S(=O)(=O)Nc2ncccn2)cc1	-2	-2.4	7	-0.3	1	2.1%
CC(CCc1ccccc1)NC(=O)Cc1ccc(Br)cc1 (configuration not stated)	6	0.1	13	0.9	-2	-1.8%
CC1(C)CC(=O)C=C(Nc2ccccc2)C1	-12	-1.7	-9	-0.5	-5	0.9%
O=C(Nc1ccc2c(c1)[C@H]1C[C@@H](CC(=O)N3CCOCC3)O[C@@H](CO)[C@H]1O2)C1CCOCC1	2	-11	7	-0.5	0	1.7%
Nc1nc2cc(S(=O)(=O)N3CCOCC3)ccc2o1	3	-1.2	12	-0.7	-7	0.1%
C#Cc1ccc(C(=O)Nc2cc(C(N)=O)ccc2N2CCOCC2)cc1	-3	-1.1	-5	0.7	-9	-2.2%[38.3 µM]
COc1cc(NC(=S)NCCc2ccccc2)c(OC)cc1NC(=O)CC(C)C	-19	-1.0	3	0.8	-13	1.8%
Cc1ccc(-c2nn(-c3ccccc3)cc2CO)cc1	0	-2.0	20	-1.4	-3	2.5%
CCN(CC)c1ccc(-n2nc3cc(C)c(NC(=O)c4ccccc4F)cc3n2)cc1	/	/	0	-0.6	/	?
CCCCn1c(N)c(N(CC(C)C)C(=O)CN2C(=O)NC3(CCC(C(C)(C)CC)CC3)C2=O)c(=O)[nH]c1=O (configuration not stated)	-1	-6.0	-19	1.2	-25	4.0%
O=C(NCCc1ccc(Cl)cc1)c1ccc(CSCc2cccc(Cl)c2)o1	/	/	40	3.3	/	?
C=CCOc1ccc(/C=N/n2cncn2)cc1OC	-3	-1.6	5	-0.2	-5	1.1%
CCOC(=O)c1ccc(N2CC(O)=C(c3nc4ccccc4c(=O)[nH]3)C2=N)cc1	-15	-1.3	-8	-0.4	-1	1.7%
N#CCCN(C(=O)COC(=O)c1cccc(S(=O)(=O)N2CCCCCC2)c1)c1ccc(F)cc1	-1	1.5	-12	0.1	7	-0.9%
CCOc1cc(C(=O)N2CCC(c3ccncc3)CC2)cc(OCC)c1OCC	/	/	0	-1.1	/	3.2%
CCC(=O)Nc1ccc(-c2nnc(-c3ccccc3)o2)cc1	0	0.1	-11	-0.4	-6	3.8%
CC(C)Cc1nnc(NC(=O)C2CC(=O)N(Cc3ccccc3)C2)s1 (configuration not stated)	0	-2.3	-2	0.6	-11	-0.8%
COc1cccc(-n2c(=O)c3c(C)c(C(=O)N(C)C)sc3n(CC(=O)Nc3ccc(C)cc3Cl)c2=O)c1	/	/	1	1.8	/	2.6%
COc1ccc(OC)c2c(C)cc(C)nc12	0	-2.6	-2	1.6	-8	4.3%
COc1ccc2nc(SCC(C)=O)c(C#N)cc2c1	-15	-1.0	-6	-0.1	-2	2.6%
Cc1ccc(S(=O)(=O)N2CCN(C3CCN(Cc4ccccc4)CC3)CC2)cc1	-1	-0.4	-1	-0.3	-30	/
CCCCNC(=O)c1cn(CC)c2cc(N3CCN(C)CC3)c(F)cc2c1=O	5	-6.4	32	-1.2	-18	0.2%
COc1ccc(C(=O)N(c2ccc(OC)cc2)S(=O)(=O)c2cccs2)cc1	2	-0.1	33	1.1	-1	-1.3%
Following part.
SMILES	Six1-Eya2 inh	D2 agonist	TRPML1 inh	TRPML1 agonist	D2 potentiator	PINK1 expr mod
COc1cc(-c2ccccc2)nc2ccccc12	12	-1.8	12	-0.2	-7	0.5%
O=C(NCCCN1CCCC1)c1cc(Sc2ccc(F)cc2)nc2ccccc12	6	0.9	-5	1.3	-21	9.6%
Cc1c(Cl)cccc1NC(=O)C(=O)NCCc1csc(-c2ccc(C(F)(F)F)cc2)n1	/	/	31	3.4	/	0.4%
CC(=O)Nc1ccc(NC(=O)C/C(C)=N/NC(=O)C(=O)N2CCCC2)cc1	5	-0.6	-13	1.9	4	0.9%
CN(C)C(=O)CCc1ccc2c3c([nH]c2c1)[C@]1(CCC2CCCC2)[C@@H](C(=O)N2CCOCC2)C[C@H](CC(=O)NCCC2=CCCCC2)C(=O)N1CC3	-12	-0.5	10	1.2	/	0.3%
CC1(C)Cc2cccc(C(=O)Nc3ccc(Cl)cc3)c2O1	8	2.0	-8	-1.1	-17	1.1%
CCn1nc(C(=O)Nc2cc(Cl)ccc2-n2cncn2)c2ccccc2c1=O	-1	0.7	12	-0.9	1	5.1%
Cc1ccc(N(CC(=O)N2CCCCCC2)S(C)(=O)=O)cc1	5	-1.6	-7	-0.1	-10	-0.8%
O=C(CNC(=O)c1ccccc1F)OCC(=O)c1ccc(Cl)s1	-4	-6.4	16	-0.6	-13	-0.2%
Cc1ccc(S(=O)(=O)c2[nH]c(-c3ccccc3)nc2SC(C)C(=O)O)cc1 (configuration not stated)	/	/	6	0.3	/	-1.0%
C=CCNC(=O)c1cccc2c1C(=O)c1ccc(N3CCOCC3)cc1S2(=O)=O	0	-1.9	13	1.0	-7	1.2%
CCC(NC(=O)C1CCCO1)c1ccccc1 (configuration not stated)	-2	-0.5	13	-0.3	-3	-1.2%
COc1ccc(/C=C2\SC(=S)N(CCC(=O)N3CCOCC3)C2=O)cc1	-13	-0.9	25	0.2	-5	0.9%
CN(CC(=O)Nc1c(Cl)cccc1Cl)C(=O)c1ccccc1Cc1ccccc1	10	-3.9	1	0.2	-17	-2.4%
COc1ccc(Cl)cc1C(=O)N1CCC2(CC1)CC(=O)c1ccccc1O2	-2	-1.9	-5	-1.2	3	2.8%
COc1ccccc1C(=O)NCC(=O)NCCc1ccc(Cl)cc1	4	2.0	-10	-0.1	-18	1.1%
COC(=O)[C@@H]1C[C@@]2(O)[C@H](O)[C@H](O)[C@H](O)C[C@H]2N1Cc1ccccc1OS(=O)(=O)c1ccc(C)cc1	-1	-3.4	-6	1.1	-10	-0.7%
CCn1nnc2cc(C(=O)Nc3ccc(OC)cc3)ccc21	/	/	3	0.1	/	5.5%
CC(C)(C)C(=O)N1CCN(C(c2ccccc2)c2ccccc2)CC1	-6	-2.6	1	-0.7	-9	5.8%
COc1ccc(CNC(=O)c2cc3cc4ccc(C)cc4nc3o2)cc1	/	/	-9	-0.9	/	0.3%
CN(C)/C=C/C(=O)c1ccc(Cl)s1	-4	-4.8	-4	0.3	1	1.0%
O=C1c2ccccc2C(=O)N1CCCn1c2ccc(Cl)cc2c2nc3ccccc3nc21	8	-1.8	-3	0.8	-6	1.4%
CC(=O)NC(=O)c1ccc(-c2ccc(Cl)cc2)o1	3	-3.8	-5	-0.2	-7	-2.1%
